Assay outcomes deposited in PubChem by several laboratories.
E coli growth – blocks Escherichia coli growth | OD600, 23 h; hits give low values | OD600 absorbance (test concentration not listed) | actives 0.21% (n = 330,000);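 active = OD600 absorbance below the run mean of sample wells minus 3.6 SD, in any replicate, cut at about 0.56 in these data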;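 also: stock transfer was 300 nL into about 60 µL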
Ecoli rRNA inh – selective bacterial rRNA inhibition in E. coli. E. coli WT GFP vs humanized-ribosome RFP mutants, fluorescence, 24 h; hits give low values; DMSO median 0, no signal -100. GFP signal change (wild-type ribosome), % (no concentration beside the values). actives 1.6% (n = 350,000);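 active = significant combined selectivity score with lowered wild-type GFP, culture density cut under 30%, mutant RFP and density less affected; inactive = any of these conditions unmet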; also: one replicate is shown; some compounds called inactive have numbers as strong as hits
A1 inh – inhibitors of the anti-apoptotic protein A1, read as caspase activation. actives 0.066% (n = 330,000). caspase activation, % (test concentration not listed). AID 2462. MEF A1-2A-BIM cells, Caspase-Glo 3/7 luminescence, 3 h; percent of clofoctol response, vehicle zero;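 active = over half of replicate activation scores above 10%, or exactly half above 10 with the replicate mean above 10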;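 also: wells of about 30 µL received 50 nL stock; many hits fall short of the cut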
UCH37 DUB inh – inhibitors of human deubiquitinating enzyme UCH37 | Q9Y5K5 | purified proteasome/UCH37, Ub-AMC cleavage fluorescence | inhibition, % (no concentration beside the values) | actives 0.33% (n = 330,000) | AID 588478;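 active = mean of two replicates above 20%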;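 also: 0% = compound-free wells with enzyme and 100% = wells lacking proteasome; stock transfer was 100 nL into about 20 µL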
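Schedule: 30 min plus 25 min, room temperature / Material: human UCH37 within purified proteasomes / Technique: AMC fluorescence intensity at 355/460 nm / Buffer or medium: pH 7.4 Tris-HCl (50 mM) with ovalbumin, ATP-MgCl2, DTT / Controls: wells without proteasome as full block, compound-free enzyme plus substrate as uninhibited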
Beta apoptosis – blocks beta cell apoptosis | INS-1E cytokine-induced death, ATP luminescence, 48 h; percent of positive-control rescue, neutral wells zero | protection from apoptosis, % (no concentration beside the values) | actives 0.8% (n = 300,000) | AID 435005;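 active = all replicates at 75% or more, or half of them and the mean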;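 also: 0% = cytokine-treated negative control wells and 100% = positive control rescue; higher means more ATP so stronger rescue from cytokine killing; wells of about 40 µL received 100 nL stock; the first replicate is given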
FGF22 binding – FGF22 (human) thermal shift binding. Q9HCT0. recombinant FGF22 thermal shift, SYPRO orange fluorescence; percent of sucrose octasulfate shift, DMSO zero. calls only at 9.99 µM. actives 1.5% (n = 340,000). AID 651658;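 active = melting point raised past a set limit in the mean and every replicate; three in four hits are not shown here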
Target sequence (Q9HCT0 whole entry, looked up): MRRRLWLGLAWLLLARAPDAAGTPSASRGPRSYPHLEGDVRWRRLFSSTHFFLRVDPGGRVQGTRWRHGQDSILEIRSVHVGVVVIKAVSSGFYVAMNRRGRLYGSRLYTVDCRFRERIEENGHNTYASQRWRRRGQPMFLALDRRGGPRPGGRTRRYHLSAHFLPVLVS
AF4-AF9 inh – MLL-AF4/AF9 protein interaction inhibition. AlphaScreen, biotin-AF4 peptide binding to FLAG-AF9. inhibition, % at 10 µM. P42568. actives 0.47% (n = 350,000);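 active = every replicate reaching a set inhibition limit, whatever the replicate mean, cut at about 25% in these data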;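 also: 0% = plate neutral control median and 100% = total signal loss; the record names both 10 and 1 µM as test concentration; the first replicate is given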
Target sequence (P42568 whole entry, looked up): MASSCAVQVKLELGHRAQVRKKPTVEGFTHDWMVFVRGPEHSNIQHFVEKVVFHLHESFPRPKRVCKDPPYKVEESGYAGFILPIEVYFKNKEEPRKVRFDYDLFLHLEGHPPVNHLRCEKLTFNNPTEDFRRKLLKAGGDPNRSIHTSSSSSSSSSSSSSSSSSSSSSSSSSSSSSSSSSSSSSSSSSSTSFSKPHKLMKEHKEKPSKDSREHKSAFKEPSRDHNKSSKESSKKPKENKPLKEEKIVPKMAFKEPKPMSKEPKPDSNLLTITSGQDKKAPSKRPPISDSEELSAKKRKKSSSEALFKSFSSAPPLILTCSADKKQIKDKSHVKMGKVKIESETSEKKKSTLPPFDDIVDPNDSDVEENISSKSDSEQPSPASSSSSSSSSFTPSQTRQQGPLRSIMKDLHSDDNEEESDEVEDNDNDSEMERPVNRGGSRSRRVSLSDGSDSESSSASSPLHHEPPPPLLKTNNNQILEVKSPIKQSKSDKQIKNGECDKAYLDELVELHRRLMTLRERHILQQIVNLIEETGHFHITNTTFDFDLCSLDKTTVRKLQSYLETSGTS
T cruzi inh – T. cruzi replication inhibition; T. cruzi beta-gal in NIH3T3, luminescence, 90 h; inhibition, % (test concentration not listed); actives 1.4% (n = 300,000); AID 1885;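 active = mean inhibition across valid replicates above about 55%, limit read from the data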;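 also: signal also drops with host cell toxicity which is not excluded here; 0% = plate median of DMSO wells and 100% = zero luminescence signal; higher percent means less beta-gal luminescence so fewer parasites; stock transfer was 50 nL into about 50 µL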
Ecoli rRNA inh OD600 – also measured in Ecoli rRNA inh; calls as there; OD600 change, %; measured here: OD600 growth;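 optical density of the mix in the first replicate; 0 = DMSO median and -100 = no signal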
Ecoli rRNA inh RFP – further read-out of Ecoli rRNA inh, marked with its call; RFP signal change, %; measured here: RFP humanized mutant strains;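 first replicate; 0 = DMSO median and -100 = no signal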
The depositor's hits bear a star; i = inactive; nt = no result given; & = joins results of further samples. Only part of the results is shown; the hit share may differ from the screen's.

SMILES	E coli growth	Ecoli rRNA inh	Ecoli rRNA inh OD600	Ecoli rRNA inh RFP	A1 inh	UCH37 DUB inh	Beta apoptosis	FGF22 binding	AF4-AF9 inh	T cruzi inh
COc1ccc(CNC(=O)Cn2nc(-c3ccc4c(c3)OCCO4)ccc2=O)cc1	0.725	nt	nt	nt	1.2	-1.1	-5.8	nt	nt	-5.8
CC1CC1C(=O)OCC(=O)Nc1ccc(S(=O)(=O)N2CCOCC2)cc1 (centres undefined)	0.678	nt	nt	nt	1.5	2.4	-8.7	i	-2.0	nt
COc1cc(OC)cc(C(=O)NC(C(=O)NNC(=O)c2cc(Cl)ccc2OC)C(C)C)c1 (centres undefined)	0.698	5.5	7.3	-5.0	-2.7	0.3	-2.2	i	1.2	nt
CCC1(c2ccccc2)NC(=O)N(CC(=O)Nc2ccc(S(=O)(=O)Nc3ncccn3)cc2)C1=O (centres undefined)	0.647	6.8	12.1	2.3	1.0	0.6	-2.7	i	-2.9	-14.7
Cc1ccc(NC(=O)NN2CCOCC2)cc1	0.674	-0.7	0.6	-0.7	0.9	0.6	0.3	i	-4.8	3.0
CN(C)S(=O)(=O)c1ccc(C(=O)OCC(=O)Nc2cccnc2Cl)cc1	0.691	5.5	-2.5	1.6	-0.3	3.1	-7.9	i	-0.9	-4.3
COc1ccc(-n2c(COc3cccc4ccccc34)nnc2SCC#N)cc1	0.762	nt	nt	nt	1.2	2.3	7.3	nt	nt	25.7
O=C(O)c1ccccc1NC(=O)N1CCOCC1	0.701	5.4	3.5	-2.5	-0.2	-3.2	nt	nt	0.3	-4.7
CCOc1ccc(OCCOC(=O)CN(C)S(=O)(=O)c2ccc(NC(C)=O)cc2)cc1	0.646	-1.7	-1.8	-3.5	0.7	1.4	-4.4	i	0.1	-3.1
COc1ccc(OC)c(N(CC(=O)N2CCN(Cc3ccccc3)CC2)S(C)(=O)=O)c1	0.688	4.8	9.9	3.2	0.3	3.0	0.0	i	-1.8	-0.5
O=C(/C=C\N1CCOCC1)c1ccc(Br)cc1	0.646	8.2	6.6	18.8	-3.5	12.2	-1.5	i	-3.9	1.1
Cc1ccc(-c2cnn(-c3cccc([N+](=O)[O-])c3)c2N)cc1	0.64	nt	nt	nt	-1.6	1.0	-3.5	nt	nt	15.9
O=C1C(Cl)=C(Nc2ccc(F)cc2)C(=O)N1CCc1ccccc1	0.743	-4.7	-1.9	-0.5	-0.4	2.9	-2.8	i	-2.1	-6.7
Cc1ccc(/C(O)=C2/C(=O)C(=O)OC2c2ccc(Cl)cc2)cc1 (centres undefined)	0.693	nt	nt	nt	0.0	7.2	nt	nt	nt	0.8
O=C(CSc1ccccc1)NNC(=O)c1ccncc1	0.688	10.5	0.9	0.8	nt	0.8	nt	i	-0.1	nt
COC(F)(C(=O)Nc1ccc2c(c1)C(=O)NC2=O)C(F)(F)F (centres undefined)	0.658	nt	nt	nt	0.4	-1.6	-2.0	nt	nt	-10.8
C/C(=N\NC(=O)CN(c1ccccc1Br)S(C)(=O)=O)c1cccs1	nt	11.8	22.3	-0.4	-1.4	nt	-6.0	i	-1.6	-0.3
O=C(COC(=O)C12CC3CC(CC(Br)(C3)C1)C2)NNC(=O)c1ccccc1	0.673	1.0	5.9	2.3	0.7	5.4	3.9	i	3.3	nt
CC(C)CCNC(=O)CN(C(=O)CCC(=O)Nc1ccccn1)c1ccc2c(c1)OCCO2	0.714	nt	nt	nt	0.0	-1.3	-1.8	nt	nt	-9.4
O=C(NS(=O)(=O)Oc1ccc(F)c(Cl)c1)OC[C@@H]1CCCN2CCCCC12 (some centres undefined)	0.674	27.2	16.9	4.6	-0.8	-1.8	2.3	nt	-0.8	1.3
O=C(C[C@@H]1C/C=C\C[C@H](Cc2ccc(F)cc2)C(=O)OC[C@@H](c2ccccc2)NC1=O)NCCO	nt	0.0	5.7	-1.9	0.0	1.7	-6.2	i	2.7	nt
CN(C)S(=O)(=O)N1CCC(Oc2cccc(C(=O)N3CCSCC3)c2)CC1	0.677	3.3	-0.2	3.0	1.6	1.6	0.7	i	0.0	-6.0
N#C/C(=C\c1c(Oc2ccccc2F)nc2ccccn2c1=O)C(=O)NC1CCS(=O)(=O)C1 (centres undefined)	0.68	1.9	9.7	2.0	0.7	-29.7	-7.4	i	1.7	-8.5
COCCn1c(SCC(=O)Nc2ccc(F)cc2)nc2ccccc2c1=O	0.628	-1.7	-1.5	-2.2	-1.4	4.4	0.4	i	1.9	-0.6
C/C(=N\NC(=O)c1ccc(Cl)cc1)c1cccs1	nt	-15.1	-9.8	0.3	nt	nt	nt	i	-0.4	-8.8

3 of the compounds above, with values under each structure:
Every second line gives: E coli growth	Ecoli rRNA inh	Ecoli rRNA inh OD600	Ecoli rRNA inh RFP	A1 inh	UCH37 DUB inh	Beta apoptosis	FGF22 binding	AF4-AF9 inh	T cruzi inh
CCC1(c2ccccc2)NC(=O)N(CC(=O)Nc2ccc(S(=O)(=O)Nc3ncccn3)cc2)C1=O (centres undefined)
 : 0.647	6.8	12.1	2.3	1.0	0.6	-2.7	i	-2.9	-14.7
COc1ccc(OC)c(N(CC(=O)N2CCN(Cc3ccccc3)CC2)S(C)(=O)=O)c1
 : 0.688	4.8	9.9	3.2	0.3	3.0	0.0	i	-1.8	-0.5
C/C(=N\NC(=O)c1ccc(Cl)cc1)c1cccs1
 : nt	-15.1	-9.8	0.3	nt	nt	nt	i	-0.4	-8.8

The listing continues:
SMILES	E coli growth	Ecoli rRNA inh	Ecoli rRNA inh OD600	Ecoli rRNA inh RFP	A1 inh	UCH37 DUB inh	Beta apoptosis	FGF22 binding	AF4-AF9 inh	T cruzi inh
Cc1cccc(N(CC(=O)N2CCN(c3ccccc3F)CC2)S(C)(=O)=O)c1	0.669	-14.7	-10.2	0.6	-0.2	3.2	5.6	i	-0.6	1.0
COCCn1c(N)c(Sc2ccc(C)cc2)c(=O)[nH]c1=O	0.643	7.9	3.1	-0.4	-4.4	0.8	nt	i	1.1	-10.3
CC(=O)c1ccc(NC(=O)c2ccccc2Sc2ncnc3sc(C)c(C)c23)cc1	0.737	-21.6	-24.0	0.9	-1.6	-0.5	7.6	i	0.5	11.9
O=C(C1=C[C@H](c2ccccc2)C[C@H](OCc2ccc(CO)cc2)O1)N1CCN(Cc2ccccc2)CC1	nt	-10.6	-7.6	20.8	0.3	0.4	2.1	i	0.9&-0.7	35.2
CC(C)C(C(=O)NCC1CCCO1)N(C(=O)CNS(=O)(=O)c1ccc(F)cc1)c1ccccc1 (centres undefined)	0.675	2.5	-1.5	-0.1	0.7	0.2	-2.4	i	-1.0	-7.2
COc1ccccc1Nc1nc(C)cc(=O)[nH]1	0.664	8.5	-1.0	0.2	-0.1	5.1	0.1	nt	nt	-4.5
COc1ccc(C(=O)NC(=S)Nc2cccnc2)cc1[N+](=O)[O-]	0.641	nt	nt	nt	-0.3	2.1	4.0	i	0.9	-7.6
O=C(NCCCN1CCOCC1)c1cccc(S(=O)(=O)N2CCOCC2)c1	0.707	nt	nt	nt	1.5	2.0	-1.3	i	-0.6	nt
CCC(=O)Nc1ccc(-c2nnc(SCC(=O)Nc3nccs3)n2C)cc1	0.674	nt	nt	nt	-0.3	2.3	-8.4	nt	nt	-12.0
O=C(c1ccc(Cl)c([N+](=O)[O-])c1)N(Cc1cccc(Cl)c1)C1CCS(=O)(=O)C1 (centres undefined)	0.703	nt	nt	nt	0.9	-0.6	-3.9	nt	nt	-9.2
CCN(CC)CCn1c(NCc2ccccn2)nc2ccccc21	0.703	nt	nt	nt	0.1	2.3	-0.8	nt	nt	-8.6
CC(=O)Nc1ccc(N2C(=O)CSC2c2c(F)cccc2Cl)cc1 (centres undefined)	0.734	8.0	-2.0	2.0	-0.1	4.8	-18.4	nt	nt	-9.5
COc1cc(NC(=O)Nc2ccccc2)c(OC)cc1NC(=O)CN1CCCCC1	0.606	nt	nt	nt	0.9	2.9	-1.7	nt	nt	27.1
C=C1CCN(c2ccc(C(=O)NCc3ccc(C)cc3)cc2[N+](=O)[O-])CC1	0.705	13.4	11.2	-0.3	0.8	2.5	-4.4	i	-42.3	15.0
CC(=O)c1cccc(NC(=O)CCn2c(=O)oc3ccccc32)c1	0.633	3.4	17.4	0.8	1.1	0.5	-6.6	i	0.5	-13.8
O=C(CCC1CCCCC1)Nc1ccc(C(=O)c2ccncc2)cc1	0.688	-28.8	-46.2	-8.4	0.1	1.5	-5.0	nt	1.6	-4.4
CN(CC(=O)Nc1ccccc1C(=O)NC1CC1)Cc1ccc(Cl)s1	0.683	-19.6	-25.2	-2.8	0.6	3.9	-5.0	i	1.8	nt
CC(C)CC(=O)NC(=S)Nc1cccc2nsnc12	nt	-12.8	-9.0	0.4	nt	nt	nt	i	-2.6	-14.8
Cc1cccc(Cn2nc(-n3cccc3)c3c(C)cc(C)nc32)c1	0.682	-11.0	-21.1	-2.1	0.2	-0.9	-2.0	i	1.7	-5.8
COC(=O)c1cc2n(n1)CCN(Cc1ccc(C)cc1)C2=O	0.749	nt	nt	nt	-0.1	1.5	-2.7	nt	nt	-15.0
COc1ccc(C(=O)OCC(=O)NC2CCCCCC2)cc1OC	0.665	-10.0	-9.6	-1.1	0.0	1.0	-8.8	i	0.3	nt
OCCCn1c(-c2ccccc2)csc1=Nc1ccccc1	0.656	-52.0	-74.2	-18.5	1.1	5.1	nt	i	44.5*	-7.3
Cc1c(NC(=O)C(Sc2ccccc2)c2ccccc2)cccc1[N+](=O)[O-] (centres undefined)	0.741	nt	nt	nt	0.3	0.8	1.7	nt	nt	0.9
CN(C)C(CNC(=O)c1cnc(Cl)c(Cl)c1)c1ccccc1 (centres undefined)	0.683	2.5	12.6	-0.2	-0.8	5.1	-3.3	i	0.4	-11.7
O=C(COC(=O)c1ccc(Cl)nc1)Nc1cccc(S(=O)(=O)N2CCCCC2)c1	0.707	-7.1	-1.7	7.8	-0.1	3.7	-2.9	i	1.3	nt

In the list so far, 2 have an NH in an aromatic ring:
SMILES	E coli growth	Ecoli rRNA inh	Ecoli rRNA inh OD600	Ecoli rRNA inh RFP	A1 inh	UCH37 DUB inh	Beta apoptosis	FGF22 binding	AF4-AF9 inh	T cruzi inh
COCCn1c(N)c(Sc2ccc(C)cc2)c(=O)[nH]c1=O	0.643	7.9	3.1	-0.4	-4.4	0.8	nt	i	1.1	-10.3
COc1ccccc1Nc1nc(C)cc(=O)[nH]1	0.664	8.5	-1.0	0.2	-0.1	5.1	0.1	nt	nt	-4.5
